Compound activity from PubChem.
HIV Env fusion = inhibitors of HIV Env-mediated cell fusion. HeLa-JRFL Env/CEM21 cell fusion, luciferase. inhibition, % at 12.3 µM. 1.1% of 360,000 active. AID 651610;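 active means mean replicate inhibition score of at least 50 and every replicate individually at or above 50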;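 further: 0% = plate neutral controls and 100% = maraviroc near 300 nM; one replicate is shown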
Yeast UUG start = yeast start codon fidelity modulation | S. cerevisiae UUG-firefly luciferase reporter, luminescence/redox ratio | activity score, % at 18.7 µM | 0.13% of 350,000 active | AID 602363;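 active means replicate mean at a twofold rise or more, about +100% in these data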;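 further: firefly luciferase made from a UUG start codon reports start codon fidelity; reporter light over untreated wells divided by growth signal over untreated wells; some hits fall short of that in this replicate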
* marks the source's active call; other numbers are inactive results; [ ] = another dose, or the depositor's remark. The list is partial, so the mix of outcomes need not match the whole.

SMILES | HIV Env fusion | Yeast UUG start
C[C@@H]1CN([C@H](C)CO)C(=O)c2cc(NC(=O)C3CCCCC3)ccc2O[C@@H]1CN(C)Cc1ccc(C(=O)Nc2ccccc2N)cc1 | -4[16.7 µM] | 10
CC(C)NC(=O)N(C)C[C@H]1Oc2ncc(C#CC3CCCC3)cc2C(=O)N([C@@H](C)CO)C[C@@H]1C | -14[16.7 µM] | 5
Cc1ccc(S(=O)(=O)NCC[C@H]2CC[C@@H](NC(=O)C3CCOCC3)[C@@H](CO)O2)cc1 | 6[16.7 µM] | 5
COc1ccc(S(=O)(=O)N(C)C[C@@H]2Oc3ccc(NC(=O)Nc4ccc(C(F)(F)F)cc4)cc3C(=O)N([C@H](C)CO)C[C@H]2C)cc1 | 25[16.7 µM] | -20
C[C@@H]1CN([C@H](C)CO)S(=O)(=O)c2ccc(C#CC3CC3)cc2O[C@H]1CN(C)C(=O)CC1CC1 | -4[16.7 µM] | 9
COc1ccc(NC(=O)Nc2cccc3c2O[C@H](CN(C)C(=O)Nc2ccc(OC)cc2)[C@H](C)CN([C@@H](C)CO)C3=O)cc1 | -16[16.7 µM] | 18
C[C@@H]1CN([C@H](C)CO)C(=O)c2cc(NC(=O)C3CCCCC3)ccc2O[C@H]1CN(C)S(=O)(=O)c1ccccc1 | 18[16.7 µM] | 13
CC(C)NC(=O)N[C@H]1CC[C@H](CCNS(=O)(=O)c2ccc(Cl)cc2)O[C@@H]1CO | -2[16.7 µM] | -3
Cc1noc(C)c1NC(=O)Nc1cccc2c1O[C@H](CN(C)C(=O)Nc1ccc(C(F)(F)F)cc1)[C@H](C)CN([C@@H](C)CO)C2=O | -30[16.7 µM] | 3
O=C(C[C@@H]1C=C[C@H](NC(=O)C2CCOCC2)[C@@H](CO)O1)NCC1CCCCC1 | 6[16.7 µM] | -15
COCCCNC(=O)[C@@]1(CCS(=O)(=O)c2ccccc2)COC(c2ccc(OCCCO)cc2)=N1 | 0[16.7 µM] | 6
C[C@@H]1CN([C@@H](C)CO)C(=O)Cc2cc(NS(=O)(=O)c3cn(C)cn3)ccc2O[C@@H]1CN(C)S(=O)(=O)c1ccccc1 | -3[16.7 µM] | -3
COc1cccc(NC(=O)N[C@@H]2CC[C@H](CC(=O)NCc3ccncn3)O[C@H]2CO)c1 | 14[16.7 µM] | -10
Cc1ccc(-c2ccc3c(c2)O[C@@H](CN(C)Cc2cccc(C(=O)O)c2)[C@@H](C)CN([C@H](C)CO)S3(=O)=O)cc1 | -4[16.7 µM] | 18
CC(C)CC#Cc1ccc2c(c1)O[C@H](CN(C)C(=O)c1ccncc1)[C@H](C)CN([C@H](C)CO)S2(=O)=O | 14[16.7 µM] | -24
C[C@H](CO)N1C[C@H](C)[C@@H](CN(C)S(=O)(=O)c2ccc(F)cc2)Oc2ccc(NC(=O)CCCCCC(=O)Nc3ccccc3N)cc2CC1=O | 17[16.7 µM] | -10
C[C@H]1CN([C@@H](C)CO)C(=O)Cc2cc(NS(=O)(=O)c3cccs3)ccc2O[C@H]1CN(C)Cc1ccc(C(F)(F)F)cc1 | -6[16.7 µM] | 0
C[C@@H]1CCCCO[C@@H](CN(C)C)[C@H](C)CN([C@H](C)CO)C(=O)c2cc(NC(=O)Nc3cccc4ccccc34)ccc2O1 | 18[16.7 µM] | 13
C[C@H](CO)N1C[C@H](C)[C@@H](CN(C)C(=O)c2ccccc2)OCCCC[C@H](C)Oc2ccc(NC(=O)NC3CCCCC3)cc2C1=O | -102[16.7 µM] | 16
CC(C)CC#Cc1cnc2c(c1)C(=O)N([C@@H](C)CO)C[C@H](C)[C@H](CN(C)C(=O)Nc1cc(F)ccc1F)O2 | -26[16.7 µM] | 26
C[C@@H]1CN([C@H](C)CO)C(=O)c2cc(NC(=O)Nc3cccc4ccccc34)ccc2O[C@@H](C)CCCCO[C@@H]1CN(C)CC1CCCCC1 | -1[16.7 µM] | 9
C[C@@H]1CN([C@H](C)CO)C(=O)c2cccc(NS(=O)(=O)c3ccc(Cl)cc3)c2O[C@@H]1CN(C)Cc1ccc(C(=O)O)cc1 | -7[16.7 µM] | 2
COc1ccc([Si](C)(C)[C@@H]2[C@@H](CCn3cc(CCO)nn3)O[C@]3(C(=O)N(c4ccccc4)c4ccccc43)[C@H]2C)cc1 | 48[16.7 µM] | 9
[N-]=[N+]=NCc1ccccc1C[C@]1(C(=O)N2CCCCC2)COC(c2ccc(OCCCO)cc2)=N1 | 7[16.7 µM] | -1
C[C@H](CO)N1C[C@H](C)[C@@H](CN(C)Cc2ccccc2)OCCCC[C@H](C)Oc2ccc(NS(=O)(=O)c3cn(C)cn3)cc2C1=O | -8[16.7 µM] | -4
(list continues)
SMILES | HIV Env fusion | Yeast UUG start
O=C(N[C@H]1CC[C@@H](CC(=O)N2CCCCC2)O[C@H]1CO)c1ccccn1 | -8[16.7 µM] | -7
C[C@H]1CN([C@@H](C)CO)S(=O)(=O)c2ccc(-c3ccncc3)cc2O[C@H]1CN(C)Cc1ccccn1 | 25[16.7 µM] | -12
Cc1noc(C)c1S(=O)(=O)N(C)C[C@@H]1OCCCC[C@@H](C)Oc2ccc(NC(=O)NC(C)C)cc2C(=O)N([C@@H](C)CO)C[C@H]1C | -39[16.7 µM] | 13
COc1ccccc1-c1cnc2c(c1)C(=O)N([C@@H](C)CO)C[C@H](C)[C@H](CN(C)C(=O)c1ccncc1)O2 | 3[16.7 µM] | -6
C[C@@H]1CN([C@H](C)CO)C(=O)c2cc(-c3cccnc3)cnc2O[C@H]1CN(C)C(=O)c1ccccc1F | -24[16.7 µM] | -16
O=C(N[C@@H]1CC[C@@H](CCNS(=O)(=O)c2ccccc2Cl)O[C@@H]1CO)c1ccc(F)cc1 | -23[16.7 µM] | 6
CCCNC(=O)N(C)C[C@@H]1Oc2ncc(C#C[C@@H](C)O)cc2C(=O)N([C@H](C)CO)C[C@H]1C | -5[16.7 µM] | 26
O=C(C[C@H]1C[C@@H]2c3cc(NS(=O)(=O)c4ccc(F)cc4)ccc3O[C@@H]2[C@@H](CO)O1)NC1CCCC1 | -5[16.7 µM] | -3
O=C(C[C@@H]1C[C@@H]2c3cc(NC(=O)C4CCOCC4)ccc3O[C@@H]2[C@@H](CO)O1)NCc1ccccn1 | 7[16.7 µM] | -26
C[C@H](CO)N1C[C@H](C)[C@@H](CN(C)Cc2ccc(C(=O)O)cc2)Oc2c(NS(=O)(=O)c3ccc(Cl)cc3)cccc2C1=O | 21[16.7 µM] | 5
COCC#Cc1ccc2c(c1)O[C@H](CN(C)Cc1ccc(F)cc1)[C@H](C)CN([C@@H](C)CO)S2(=O)=O | 7[16.7 µM] | 5
O=C(C[C@@H]1C=C[C@H](NC(=O)CC2CC2)[C@H](CO)O1)NCc1ccc(Cl)cc1 | -4[16.7 µM] | -5
CCNC(=O)C[C@@H]1CC[C@H]2[C@@H](COC[C@H](O)CN2C(=O)C2CCOCC2)O1 | -5[16.7 µM] | -10
CCCNC(=O)N1C[C@H](C)[C@@H](OC)CN(C)C(=O)c2ccc(NC(C)=O)cc2OC[C@H]1C | -6[16.7 µM] | -3
O=C(C[C@@H]1CC[C@H](NC(=O)C2CCC2)[C@H](CO)O1)Nc1nccs1 | -15[16.7 µM] | -26
COc1ccc(NC(=O)Nc2ccc3c(c2)C(=O)N([C@H](C)CO)C[C@H](C)[C@H](CN(C)C)OCCCC[C@@H](C)O3)cc1 | -9[16.7 µM] | 20
COc1ccc(S(=O)(=O)Nc2ccc3c(c2)C(=O)N([C@H](C)CO)C[C@@H](C)[C@H](CN(C)C(=O)NC(C)C)OCCCC[C@@H](C)O3)cc1 | -29[16.7 µM] | 15
Cc1ccc(-c2ccc3c(c2)O[C@H](CN(C)Cc2cccc(C(=O)O)c2)[C@H](C)CN([C@H](C)CO)S3(=O)=O)cc1 | -17[16.7 µM] | 15
O=C(Nc1ccc(Cl)c(Cl)c1)N[C@H]1CC[C@@H](CCn2cc(C3CCCCC3)nn2)O[C@@H]1CO | 20[16.7 µM] | -4
CC(C)NC(=O)Nc1ccc2c(c1)C(=O)N([C@H](C)CO)C[C@H](C)[C@H](CN(C)Cc1ccc(C(=O)O)cc1)OCCCC[C@@H](C)O2 | -1[16.7 µM] | 0
CN1C(=O)c2cc(NC(=O)c3cscn3)ccc2OC[C@@H]2O[C@H](CC(=O)N3CCCCC3)CC[C@@H]21 | -2[16.7 µM] | 1
O=C(NCC[C@H]1CC[C@H](NC(=O)c2cccnc2)[C@@H](CO)O1)Nc1ccc(F)cc1 | 3[16.7 µM] | 15
C[C@@H]1CN([C@@H](C)CO)C(=O)c2cc(NC(=O)c3ccncc3)ccc2O[C@H]1CN(C)S(=O)(=O)c1ccc(F)cc1 | 4[16.7 µM] | 9
C[C@@H]1CN([C@@H](C)CO)C(=O)Cc2cc(NC(=O)C3CC3)ccc2O[C@@H]1CN(C)CC1CC1 | 2[16.7 µM] | 9
CCCC(=O)Nc1ccc2c(c1)C(=O)N(C)[C@H]1CC[C@@H](CC(=O)NCc3ccccc3F)O[C@H]1CO2 | -7[16.7 µM] | 11
The results go on.
SMILES | HIV Env fusion | Yeast UUG start
C[C@H](CO)N1C[C@H](C)[C@H](CN(C)C)Oc2cc(/C=C/c3ccccc3)ccc2S1(=O)=O | 12[16.7 µM] | 10
COc1ccc(S(=O)(=O)N(C)C[C@@H]2Oc3c(NC(=O)NC(C)C)cccc3C(=O)N([C@H](C)CO)C[C@H]2C)cc1 | -13[16.7 µM] | -2
O=C(C[C@H]1C=C[C@H](NC(=O)Nc2cccc(F)c2)[C@@H](CO)O1)NCC1CC1 | 8[16.7 µM] | -15
C[C@H](CO)N1C[C@H](C)[C@@H](CN(C)C(=O)Cc2ccccn2)Oc2cc(-c3ccc(C(=O)N(C)C)cc3)ccc2S1(=O)=O | 4[16.7 µM] | 12
C/C=C/c1cnc2c(c1)C(=O)N([C@H](C)CO)C[C@@H](C)[C@H](CN(C)C(=O)c1cccnc1)O2 | -18[16.7 µM] | -21
C[C@@H]1CCCCO[C@@H](CN(C)S(=O)(=O)c2ccc(F)cc2)[C@H](C)CN([C@H](C)CO)C(=O)c2cc(NS(=O)(=O)c3ccc(Cl)cc3)ccc2O1 | 24[16.7 µM] | 11
O=C(C[C@@H]1CC[C@H](NC(=O)c2ccccc2)[C@H](CO)O1)NCc1ccc(Oc2ccccc2)cc1 | 21[16.7 µM] | 9
C[C@H]1CN([C@@H](C)CO)C(=O)c2cc(Br)cnc2O[C@@H]1CN(C)C(=O)C1CC1 | -22[16.7 µM] | -14
C[C@@H]1CN([C@H](C)CO)C(=O)c2cc(/C=C/c3ccccc3)cnc2O[C@H]1CN(C)C(=O)C1CCOCC1 | -31[16.7 µM] | 7
C[C@@H]1CN([C@@H](C)CO)S(=O)(=O)c2ccc(-c3ccc(C#N)cc3)cc2O[C@H]1CN(C)C(=O)C1CC1 | -24[16.7 µM] | 16
C[C@H](CO)N1C[C@H](C)[C@H](CN(C)C(=O)NC2CCCCC2)Oc2ccc(N(C)C)cc2CC1=O | -8[16.7 µM] | 2
C[C@@H]1CCCCO[C@@H](CN(C)CC2CCCCC2)[C@H](C)CN([C@@H](C)CO)C(=O)c2cc(NS(=O)(=O)c3ccccc3)ccc2O1 | -24[16.7 µM] | 25
COCCNC(=O)C[C@H]1C[C@H]2c3cc(NC(=O)Cc4ccncc4)ccc3O[C@H]2[C@H](CO)O1 | 3[16.7 µM] | 0
Cc1ccc(S(=O)(=O)Nc2ccc3c(c2)C(=O)N([C@@H](C)CO)C[C@H](C)[C@@H](CN(C)C(=O)Cc2ccccc2)OCCCC[C@@H](C)O3)cc1 | -127[16.7 µM] | 3
C[C@H](CO)N1C[C@H](C)[C@H](CN(C)C(=O)NC2CCCC2)Oc2ncc(-c3cc4ccccc4o3)cc2C1=O | 12[16.7 µM] | 6
C[C@@H]1CN([C@@H](C)CO)C(=O)c2cc(C#Cc3cccnc3)cnc2O[C@@H]1CN(C)Cc1ccccc1 | -4[16.7 µM] | 7
COc1cccc(C#Cc2ccc([C@H]3[C@H](C#N)N(C(=O)C4CCC4)[C@H]3CO)cc2)c1 | -11[16.7 µM] | -8

Shown field by field: four of the compounds above.
> COc1cccc(NC(=O)N[C@@H]2CC[C@H](CC(=O)NCc3ccncn3)O[C@H]2CO)c1
- HIV Env fusion = 14[16.7 µM]
- Yeast UUG start = -10
> COCCCNC(=O)[C@@]1(CCS(=O)(=O)c2ccccc2)COC(c2ccc(OCCCO)cc2)=N1
- HIV Env fusion = 0[16.7 µM]
- Yeast UUG start = 6
> O=C(N[C@H]1CC[C@@H](CC(=O)N2CCCCC2)O[C@H]1CO)c1ccccn1
- HIV Env fusion = -8[16.7 µM]
- Yeast UUG start = -7
> CC(C)CC#Cc1ccc2c(c1)O[C@H](CN(C)C(=O)c1ccncc1)[C@H](C)CN([C@H](C)CO)S2(=O)=O
- HIV Env fusion = 14[16.7 µM]
- Yeast UUG start = -24

A draw from above in order of formula weight, lowest first:
SMILES | HIV Env fusion | Yeast UUG start
COCCNC(=O)C[C@H]1C[C@H]2c3cc(NC(=O)Cc4ccncc4)ccc3O[C@H]2[C@H](CO)O1 | 3[16.7 µM] | 0
C[C@H](CO)N1C[C@H](C)[C@H](CN(C)C(=O)NC2CCCCC2)Oc2ccc(N(C)C)cc2CC1=O | -8[16.7 µM] | 2
C[C@H](CO)N1C[C@H](C)[C@H](CN(C)C(=O)NC2CCCC2)Oc2ncc(-c3cc4ccccc4o3)cc2C1=O | 12[16.7 µM] | 6
